Source: PubChem
Sa growth 42C = S. aureus growth inhibition at 42 and 30 °C, primary screen, LtaS inhibitor project, RN4220, two temperatures | 0.53% of 170,000 active | relative growth, % (test concentration not listed) | AID 720641, 2013 | OD600, 20 h, 42 °C; active compounds read low;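 active = growth at 42 °C up to 50% and 20 or more points under that at 30 °C, or under 10% at both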;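 note: 300 nL library stock went into each well; scaled to the means of positive and negative controls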
HCMV UL50-53 inh = inhibitors of HCMV UL50-UL53 interaction, biochemical, HTRF | HCMV UL50-UL53 nuclear egress complex (human cytomegalovirus) | normalized percent inhibition | inhibition, % (concentration not given with the values) | 0.15% of 190,000 active;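 active = both replicates at 50% or more, plus weaker picks with an unusually low signal ratio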;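 note: stock transfer was 100 nL into about 20 µL; 0% = negative control wells and 100% = wells with untagged competitor protein; inactives centre near -12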
GIV Gai3 FP = inhibitors of GIV peptide binding to Galpha-i3, primary screen, biochemical, fluorescence polarization, FITC-GIV GBA peptide, rat Galphai3. Guanine nucleotide-binding protein G(i) subunit alpha-3 (Rattus norvegicus), P08753. 90 min; active compounds read low; scaled: aluminum fluoride 0%, vehicle 100%. percent of control (FP), % (no concentration beside the values). 0.42% of 210,000 active. AID 1224905, 2016;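 active = replicate mean at 85% of control or lower, very high polarization wells dropped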;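 note: wells of about 15 µL received 100 nL stock; the first replicate is given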
Target sequence (P08753 whole entry, looked up): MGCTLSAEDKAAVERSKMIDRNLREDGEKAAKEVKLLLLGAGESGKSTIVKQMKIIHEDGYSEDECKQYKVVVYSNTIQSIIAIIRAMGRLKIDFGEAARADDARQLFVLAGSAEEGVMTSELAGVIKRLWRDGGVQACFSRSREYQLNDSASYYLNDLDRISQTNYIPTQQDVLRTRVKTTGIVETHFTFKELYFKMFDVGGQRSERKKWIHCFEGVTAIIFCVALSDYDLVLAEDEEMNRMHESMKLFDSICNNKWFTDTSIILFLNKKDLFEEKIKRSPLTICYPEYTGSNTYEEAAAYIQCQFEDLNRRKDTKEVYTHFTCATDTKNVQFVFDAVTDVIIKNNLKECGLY
Sa growth 42C second temp = second read-out of Sa growth 42C, no call of its own (marks repeat the call); relative growth, %; measured here: growth at 30 °C;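 optical density after 20 h as mean of two plates; 100% = untreated growth and lower means inhibition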
An asterisk follows results filed as active; & = joins results of further samples.

O=C(O)c1cnc2ccccc2c1N1CCOCC1 was read as HCMV UL50-53 inh -26 and GIV Gai3 FP 104.
`COC(=O)c1ccc2c(c1)N(CC(=O)Nc1cccc(C(F)(F)F)c1)C(=O)c1ccccc1S2` gave Sa growth 42C 97, GIV Gai3 FP 99 and Sa growth 42C second temp 81.
For O=S(=O)(c1ccc(-n2cnnn2)cc1)N(Cc1ccccn1)C1CC1 the results were Sa growth 42C 133, HCMV UL50-53 inh 3, GIV Gai3 FP 102 and Sa growth 42C second temp 92.
O=S(=O)(NCCc1csc2nc(-c3ccc(F)cc3)nn12)c1ccc2c(c1)OCCO2 was read as Sa growth 42C 104, GIV Gai3 FP 105 and Sa growth 42C second temp 99.
CC(=O)N(Cc1ccc(Br)cc1)c1ccccc1C(=O)O was read as Sa growth 42C 94, HCMV UL50-53 inh -15 and Sa growth 42C second temp 98.
Screening CCC1CCCCN1C(=O)CSc1nc2c([nH]c3ccccc32)c(=O)n1-c1ccccc1 (configuration not stated) returned Sa growth 42C 92, GIV Gai3 FP 104 and Sa growth 42C second temp 82.
Screening Cc1ccc(S(=O)(=O)N2CCN(c3nc4cc(Br)ccc4n4cccc34)CC2)cc1C returned HCMV UL50-53 inh -12 and GIV Gai3 FP 103.
Screening CCCOc1ccc(/C=C/C(=O)Nc2sc3c(c2C(=O)OCC)CCC(C)C3)cc1OC (configuration not stated) returned Sa growth 42C 101, HCMV UL50-53 inh -48, GIV Gai3 FP 105 and Sa growth 42C second temp 89.
Cc1ccc(S(=O)(=O)c2cn(Cc3cccc(F)c3)c3cc(N4CCCC4)c(F)cc3c2=O)cc1 was read as Sa growth 42C 104, GIV Gai3 FP 110 and Sa growth 42C second temp 79.
`O=C(c1cccc(S(=O)(=O)N2CCc3ccccc32)c1)N1CCCCC1CO` (configuration not stated) gave Sa growth 42C 105, HCMV UL50-53 inh -8 and Sa growth 42C second temp 94.
C=CCSc1nc(-c2ccc(OC)cc2)c(C#N)c(=O)n1CC=C was read as Sa growth 42C 84, HCMV UL50-53 inh -2, GIV Gai3 FP 105 and Sa growth 42C second temp 89.
For O=c1[nH]nc(C(F)(F)F)n2cccc12 the results were Sa growth 42C 92, HCMV UL50-53 inh -4, GIV Gai3 FP 102 and Sa growth 42C second temp 97.
For Cn1c(SCc2cccc(C#N)c2)nnc1C(F)(F)F the results were Sa growth 42C 113, HCMV UL50-53 inh 2, GIV Gai3 FP 101 and Sa growth 42C second temp 85.
`N#CC1=C(N)N=C(SCc2ccccc2)C(C(N)=O)C12CCCCC2` (configuration not stated) gave Sa growth 42C 95, HCMV UL50-53 inh -24, GIV Gai3 FP 100 and Sa growth 42C second temp 105.
`Cc1cccc(OC2CCS(=O)(=O)C2)c1` (configuration not stated) gave Sa growth 42C 91, HCMV UL50-53 inh -27, GIV Gai3 FP 102 and Sa growth 42C second temp 79.
For O=c1[nH]cnc2nc3c4ccccc4c4ccccc4c3nc12 the results were Sa growth 42C 101, HCMV UL50-53 inh -11, GIV Gai3 FP 97 and Sa growth 42C second temp 52.
Screening Clc1ccccc1CSc1nccc(-c2ccco2)n1 returned Sa growth 42C 76, HCMV UL50-53 inh -2, GIV Gai3 FP 102 and Sa growth 42C second temp 102.
CC1=C(C(=O)Nc2cccc(F)c2)C(c2ccc3c(c2)OCO3)C2=C(CC(c3ccccc3)CC2=O)N1 (configuration not stated) was read as HCMV UL50-53 inh -7 and GIV Gai3 FP 100.
`COc1cc(-c2nc3cc(Cl)ccc3o2)cc(OC)c1OC` gave Sa growth 42C 101, HCMV UL50-53 inh -7, GIV Gai3 FP 100 and Sa growth 42C second temp 61.
For Cc1ccc(CC(=O)Nc2c(C(=O)N3CCN(c4ccccc4)CC3)oc3ccccc23)cc1 the results were Sa growth 42C 33, HCMV UL50-53 inh -12, GIV Gai3 FP 102 and Sa growth 42C second temp 39.
CCCCN1CC(c2nc3ccccc3n2CC(=O)N2CCOCC2)CC1=O (configuration not stated) was read as HCMV UL50-53 inh -12 and GIV Gai3 FP 108.
Screening COc1ccccc1NC(=O)C1CC(=O)N(C)C(=Nc2ccccc2)S1 (configuration not stated) returned Sa growth 42C 96, GIV Gai3 FP 97 and Sa growth 42C second temp 82.
`Cc1c(NC(=O)CSc2nnc(Cc3ccccc3)o2)c(=O)n(-c2ccccc2)n1C` gave Sa growth 42C 104, HCMV UL50-53 inh 0, GIV Gai3 FP 102 and Sa growth 42C second temp 108.
Cc1ccc(CN2c3ccccc3S(=O)(=O)c3ccccc32)cc1 was read as Sa growth 42C 95, GIV Gai3 FP 97 and Sa growth 42C second temp 88.
O=c1cc(-c2ccccc2)nc(SCc2nc(-c3cccc(C(F)(F)F)c3)no2)[nH]1 was read as Sa growth 42C 99, GIV Gai3 FP 100 and Sa growth 42C second temp 93.
`O=C(NCCn1c(CCc2ccccc2)nc2ccccc21)Nc1cccc(Br)c1` gave HCMV UL50-53 inh 2 and GIV Gai3 FP 107.
N#Cc1cc2cc(Br)ccc2oc1=O was read as Sa growth 42C 89, HCMV UL50-53 inh -130, GIV Gai3 FP 95 and Sa growth 42C second temp 88.
`CC(=O)N(C(C)=O)c1ncnc2sc3c(c12)CCCC3` gave Sa growth 42C 103, HCMV UL50-53 inh 4&-36, GIV Gai3 FP 110&101 and Sa growth 42C second temp 95.
Screening O=C(Cn1ncc2c([nH]c3ccccc32)c1=O)NCCC1=CCCCC1 returned Sa growth 42C 99, GIV Gai3 FP 96 and Sa growth 42C second temp 82.
Screening O=S1OCC(COc2cccc3ccccc23)O1 (configuration not stated) returned Sa growth 42C 99, HCMV UL50-53 inh -17 and Sa growth 42C second temp 89.
COC(=O)c1ccc2c(c1)N(Cc1nc(-c3cccc(Cl)c3)oc1C)C(=O)C1CCCN21 (configuration not stated) was read as Sa growth 42C 105, GIV Gai3 FP 103 and Sa growth 42C second temp 90.
CCn1c(=NC(=O)COc2ccc(OC)cc2)sc2cccc(F)c21 was read as Sa growth 42C 80, HCMV UL50-53 inh 2 and Sa growth 42C second temp 97.
For Cc1ccc(NCc2n[nH]c(=S)n2-c2ccccc2)cc1 the results were Sa growth 42C 95, HCMV UL50-53 inh -13, GIV Gai3 FP 106 and Sa growth 42C second temp 84.
Screening COc1ccc2c(c1)-c1ccccc1S(=O)(=O)N2 returned Sa growth 42C 123, HCMV UL50-53 inh 1 and Sa growth 42C second temp 91.
For O=C(NCc1ccccc1)N1CCOc2ccccc21 the results were Sa growth 42C 104, GIV Gai3 FP 97 and Sa growth 42C second temp 82.
`N#Cc1ccc(-c2ccc(F)cc2)n(CC(=O)N2CCCC2)c1=O` gave Sa growth 42C 112, HCMV UL50-53 inh -3, GIV Gai3 FP 106 and Sa growth 42C second temp 79.
Screening CCCCCN1C(C(=O)c2ccccc2)=C(NC(=O)c2ccc(C)cc2)c2ccccc2S1(=O)=O returned Sa growth 42C 92, HCMV UL50-53 inh -7, GIV Gai3 FP 106 and Sa growth 42C second temp 92.
CC(C)(C)NC(=S)N1CCSCC1 was read as Sa growth 42C 113, HCMV UL50-53 inh -5, GIV Gai3 FP 105 and Sa growth 42C second temp 93.
CN(Cc1ccccc1)C(=O)CN1C(=O)COc2ccc(C(=O)N3CCCC3)cc21 was read as HCMV UL50-53 inh -28 and GIV Gai3 FP 97.
For CC1Cc2ccccc2N1C(=O)CSc1ncccc1C(=O)O (configuration not stated) the results were Sa growth 42C 91, HCMV UL50-53 inh -9, GIV Gai3 FP 95 and Sa growth 42C second temp 101.

Structural class, the compounds so far containing a cyano group
C=CCSc1nc(-c2ccc(OC)cc2)c(C#N)c(=O)n1CC=C was read as Sa growth 42C 84, HCMV UL50-53 inh -2, GIV Gai3 FP 105 and Sa growth 42C second temp 89.
For Cn1c(SCc2cccc(C#N)c2)nnc1C(F)(F)F the results were Sa growth 42C 113, HCMV UL50-53 inh 2, GIV Gai3 FP 101 and Sa growth 42C second temp 85.
`N#CC1=C(N)N=C(SCc2ccccc2)C(C(N)=O)C12CCCCC2` (configuration not stated) gave Sa growth 42C 95, HCMV UL50-53 inh -24, GIV Gai3 FP 100 and Sa growth 42C second temp 105.
N#Cc1cc2cc(Br)ccc2oc1=O was read as Sa growth 42C 89, HCMV UL50-53 inh -130, GIV Gai3 FP 95 and Sa growth 42C second temp 88.
`N#Cc1ccc(-c2ccc(F)cc2)n(CC(=O)N2CCCC2)c1=O` gave Sa growth 42C 112, HCMV UL50-53 inh -3, GIV Gai3 FP 106 and Sa growth 42C second temp 79.

(more compounds)
Screening COc1nc2c(C)cccc2cc1-c1noc(C)n1 returned HCMV UL50-53 inh -6 and GIV Gai3 FP 99.
CN(C(=O)c1cc2c(=O)oc3ccccc3c2n1C)c1ccccc1F was read as HCMV UL50-53 inh 0 and GIV Gai3 FP 114.
Cc1cc(N2CCN(C)CC2)nc2ccc(NC(=O)Nc3ccccc3Cl)cc12 was read as Sa growth 42C 93, GIV Gai3 FP 105 and Sa growth 42C second temp 90.
Screening COc1ccc(OCc2ccc(-c3nc(C#N)c(N4CCN(C)CC4)o3)o2)cc1 returned Sa growth 42C 101, HCMV UL50-53 inh 16, GIV Gai3 FP 102 and Sa growth 42C second temp 94.
Screening CCN(CC)S(=O)(=O)c1ccc(-n2cnnn2)c(C)c1 returned Sa growth 42C 88, HCMV UL50-53 inh 13, GIV Gai3 FP 95 and Sa growth 42C second temp 115.
Cc1oc(C(C)(C)C)cc1C(=O)O was read as Sa growth 42C 98, HCMV UL50-53 inh 4, GIV Gai3 FP 102 and Sa growth 42C second temp 82.
`O=C1CC(Nc2ccc(N3CCOCC3)cc2)C(=O)N1c1ccccc1` (configuration not stated) gave Sa growth 42C 112, HCMV UL50-53 inh -21 and Sa growth 42C second temp 86.
COc1ccc(Oc2cc3c(cc2NC(=O)C(C)(C)C)n(C)c(=O)c(=O)n3C)cc1 was read as HCMV UL50-53 inh -25 and GIV Gai3 FP 103.
For NC(=O)CSc1nc(NC2CC2)c2ccccc2n1 the results were Sa growth 42C 85, HCMV UL50-53 inh -20 and Sa growth 42C second temp 77.
Screening O=c1[nH]nc(CSc2ccccn2)c2ccccc12 returned Sa growth 42C 102, HCMV UL50-53 inh -6, GIV Gai3 FP 111 and Sa growth 42C second temp 92.
Screening CCc1ccccc1NC(=O)NCCc1csc(C)c1C returned HCMV UL50-53 inh 7 and GIV Gai3 FP 107.
For Cc1cccc(-c2nc3ccccc3c(=O)n2CC(=O)N2CCN(c3ccc(F)cc3)CC2)c1 the results were HCMV UL50-53 inh 3 and GIV Gai3 FP 111.
Screening O=C(O)c1nc(Cl)c(Cl)c(N2CCCCC2)c1Cl returned Sa growth 42C 96, HCMV UL50-53 inh -20 and Sa growth 42C second temp 83.
For O=C(O)c1ccccc1C(=O)N(Cc1ccccc1)Cc1ccccc1 the results were Sa growth 42C 117, HCMV UL50-53 inh -6 and Sa growth 42C second temp 82.
For CCOC(=O)CCn1nc(-c2ccc(C)cc2)c2ccccc2c1=O the results were Sa growth 42C 101, HCMV UL50-53 inh -36, GIV Gai3 FP 107 and Sa growth 42C second temp 89.
For Cc1cccn2c(=O)c(/C=C3\SC(=S)N(CC(C)C)C3=O)c(N3CC(C)OC(C)C3)nc12 (configuration not stated) the results were HCMV UL50-53 inh -27 and GIV Gai3 FP 114.
Screening CCN(CC)c1ccc(C(=O)NN)cc1 returned Sa growth 42C 90, HCMV UL50-53 inh -8 and Sa growth 42C second temp 78.
Screening O=C(Nc1ccc2c(c1)nc1n2CCN(Cc2ccccc2)C1)c1ccc(F)cc1 returned HCMV UL50-53 inh -20 and GIV Gai3 FP 98.
Screening Cc1cccc(-n2c(C)nc3cc(C(=O)NCc4ccc(F)cc4)ccc32)c1 returned Sa growth 42C 53, GIV Gai3 FP 104 and Sa growth 42C second temp 36.
Screening Cc1ccc(C(=O)NCCN2C(=O)S/C(=C\c3ccc(F)cc3)C2=O)cc1NC(=O)c1ccco1 returned Sa growth 42C 94, HCMV UL50-53 inh -57 and Sa growth 42C second temp 85.
FC(F)(F)c1cc(-c2ccc(-c3ccn[nH]3)o2)cc(C(F)(F)F)c1 was read as Sa growth 42C 85, HCMV UL50-53 inh -53, GIV Gai3 FP 104 and Sa growth 42C second temp 86.
COc1cccc(Cn2c(SCc3ccc(C(=O)N4CCC(C)CC4)cc3)nc3ccncc32)c1 was read as Sa growth 42C 89, HCMV UL50-53 inh -6, GIV Gai3 FP 111 and Sa growth 42C second temp 65.
`O=C(/C=C/c1ccccc1)N1CCCc2ccccc21` gave Sa growth 42C 73, HCMV UL50-53 inh -17, GIV Gai3 FP 104 and Sa growth 42C second temp 64.
COc1ccccc1-n1cnnc1SCc1ccc(C)cc1 was read as Sa growth 42C 83, HCMV UL50-53 inh -10 and Sa growth 42C second temp 92.
Screening O=C(NCC(c1ccco1)N1CCOCC1)c1ccccc1 (configuration not stated) returned Sa growth 42C 108, HCMV UL50-53 inh -6, GIV Gai3 FP 103 and Sa growth 42C second temp 99.
Screening CCN(CC)CCNc1ccnc2cc(Cl)ccc12 returned Sa growth 42C 102, HCMV UL50-53 inh 8, GIV Gai3 FP 101 and Sa growth 42C second temp 102.

No enrichment for hits, and some 0.83% of all compounds hit somewhere here.
